From PubChem
RE007 growth inh = less growth of the S. pombe RE007 Vpr strain | S. pombe RE007 Vpr strain, BacTiter-Glo ATP luminescence, 24 h; control for the full effect not named in the record | Potency, µM (highest dose often 92.2 µM), for inactives: at the top dose activity change, negative = less growth | hit rate 0.21% among 360,000 | AID 651644; active = well fitted falling curve with a large enough effect; inconclusive = small, poorly fitted or top-dose-only effect; inactive = no such curve, though single readings can be large or run the other way;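 further: on the % scale 0 is the no-effect control and ±100 the full control effect; nearly all actives have a fitted effect of over 50% in size; the assay follows cell death caused by Vpr and the record does not say whether a fall means rescue or toxicity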
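Fission yeast RE007 carrying one integrated HIV-1 vpr copy, seeded at OD 0.01 in PMG+AL medium with 23 nL pinned compound. Grown 24 h at 30 degrees; viability read by BacTiter-Glo luminescence after 5 min.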
Cruzain inh noDet = cruzain (T. cruzi) inhibition without detergent. P25779. purified cruzain, Z-FR-AMC fluorescence, no detergent. Potency, µM, inactives show max response, negative = inhibition, usual class: inhibitors. hit rate 2.3% among 200,000; active means well fitted curve in the direction sought with a large enough effect; inconclusive means small, poorly fitted or top-dose-only effect, or another doubt; inactive means no such curve, though single readings can be large; an effect the other way counts as inactive or inconclusive;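 further: plate controls were enzyme without inhibitor for no effect and buffer without enzyme for full effect; nearly all actives have a fitted effect of over 40% in size; top concentration of the series not given in the record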
Target sequence (P25779 123-467 limits assumed): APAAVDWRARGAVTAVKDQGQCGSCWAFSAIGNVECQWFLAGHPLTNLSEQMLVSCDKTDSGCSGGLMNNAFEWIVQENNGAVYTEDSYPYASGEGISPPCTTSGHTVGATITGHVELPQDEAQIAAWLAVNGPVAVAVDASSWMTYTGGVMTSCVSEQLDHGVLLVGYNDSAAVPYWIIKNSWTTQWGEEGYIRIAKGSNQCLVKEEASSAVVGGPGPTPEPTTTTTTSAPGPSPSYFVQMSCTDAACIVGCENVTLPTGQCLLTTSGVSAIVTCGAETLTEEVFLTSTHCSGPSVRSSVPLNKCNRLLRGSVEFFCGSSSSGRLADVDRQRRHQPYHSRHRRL
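Purified cruzain at 1.5 nM, pre-incubated 15 min with compound at room temperature in 100 mM sodium acetate pH 5.5, 5 mM DTT, 0.00005% Triton X-100. Reaction started with 2 uM Z-FR-AMC; AMC fluorescence increase over 60 s gives rate.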
MARV entry inh = blocks Marburg virus binding to or entry into cells. hit rate 1.8% among 300,000. Potency, µM (titrated, usually from 37.8 µM), inactives show at the top dose activity change, negative = inhibition, usual class: inhibitors. Marburg virus pseudotyped entry inhibition, cell reporter; control for the full effect not named in the record; about a third of the inactives were read at about 46 µM; active = well fitted inhibition curve with a large enough effect; inconclusive = small, poorly fitted or top-dose-only effect, or effect the other way; inactive = flat fitted curve, though single readings scatter; tested in HEK293 cells; about a fifth of its hits are not listed in these tables; further: on the % scale 0 is the no-effect control and ±100 the full control effect; luciferase read-out
StopGo reporter = lowers the luciferase signal of an FMDV 2A StopGo reporter. hit rate 1.2% among 410,000. AID 1159524. human cells with a luciferase reporter of 2A StopGo recoding; control for the full effect not named in the record. Potency, µM (doses to about 57.9 µM), for the others: at the top dose signal change, negative = less light; active = well fitted falling curve with a large enough effect; inconclusive = small, poorly fitted or top-dose-only effect; inactive = no such curve, though single readings can be large or run the other way; tested in HEK293T cells; further: on the % scale 0 is the no-effect control and ±100 the full control effect; nearly all actives have a fitted effect of over 45% in size; luciferase light after 4 h
Cruzain inh Det = cruzain (T. cruzi) inhibition with detergent; purified cruzain, Z-FR-AMC fluorescence, 0.01% Triton; hit rate 0.43% among 200,000; P25779; Potency, µM, for inactives: max response, negative = inhibition, most hits filed as inhibitors; active means well fitted curve in the direction sought with a large enough effect; inconclusive means small, poorly fitted or top-dose-only effect, or another doubt; inactive means no such curve, though single readings can be large; an effect the other way counts as inactive or inconclusive;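 further: plate controls were neutral wells for no effect and buffer without enzyme for full effect; nearly all actives have a fitted effect of over 40% in size; top concentration of the series not given in the record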
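Purified cruzain (1.5 nM final) was preincubated with compounds for 15 min at room temperature in 100 mM sodium acetate pH 5.5, 5 mM DTT, 0.01% Triton X-100. Reaction started with 2 uM Z-FR-AMC; AMC fluorescence change over 60 s gave activity.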
Lassa entry inh = Lassa virus entry inhibition. hit rate 1.2% among 300,000. Potency, µM (top dose mostly 37.9 µM), inactives show at the top dose activity change, negative = inhibition, actives largely listed as inhibitors. Lassa virus pseudotype entry inhibition, cell reporter; control for the full effect not named in the record; active means well fitted inhibition curve with a large enough effect; inconclusive means small, poorly fitted or top-dose-only effect, or effect the other way; inactive means flat fitted curve, though single readings scatter; tested in HEK293 cells; further: on the % scale 0 is the no-effect control and ±100 the full control effect; nearly all actives have a fitted effect of over 50% in size; luciferase read-out
SARS PLpro yeast = blocks SARS-CoV papain-like protease in a yeast assay. hit rate 0.19% among 330,000. AID 485353. Potency, µM (doses to about 32.9 µM), for the others: at the top dose activity, positive = growth rescue. S. cerevisiae expressing SARS-CoV PLpro, growth rescue; control for the full effect not named in the record; further: 0% is about no effect; nearly all actives have a fitted effect of over 55% in size; growth read by luminescence after 48 h
NS1 inh = blocks influenza NS1 protein function; Potency, µM (series often up to 46.1 µM), for the others: at the top dose activity, positive = more growth; hit rate 0.4% among 270,000; S. cerevisiae slowed by influenza A NS1, growth recovery by OD600; AID 2326; further: actives are rising curves; nearly all actives have a fitted effect of over 50% in size
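In this qHTS, NS1 from influenza A is expressed in budding yeast, where it slows growth. Cells are switched from glucose to 2% galactose medium (pH 6.0, -URA), treated with compound, and growth recovery is read at OD600.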
Starred values were filed as active, the others as inactive; u = inconclusive; x = no result given; & = joins results of further samples; [ ] = dose if it differs, or a comment. Unless noted, the call rests on the fitted dose curve; in most records, active means well fitted rising curve with a large enough effect; inconclusive means small, poorly fitted or top-dose-only effect; inactive means no such curve, though single readings can be large or run the other way. Potency means the concentration at half of the fitted maximal effect. Not a hit list. Share with any hit: about 4.6%.

SMILES | RE007 growth inh | Cruzain inh noDet | MARV entry inh | StopGo reporter | Cruzain inh Det | Lassa entry inh | SARS PLpro yeast | NS1 inh
CC1CC(C)CN(CCCNC(=O)c2ccc3c(c2)N(Cc2ccccc2)C(=O)c2ccccc2S3=O)C1 (stereo not drawn) | 1.9% | x | x | -15.8% | x | x | 7.1% | 3.7%
COc1ccccc1NC(=O)Nc1ccc(C)cn1 | 5.9% | x | x | 0.0% | x | x | -3.8% | -38.3%
NC(=O)NC(CC(=O)NCCCc1ccccc1)c1ccc(Cl)cc1 (stereo not drawn) | -8.6% | x | x | -27.3% | x | x | 0.9% | -0.8%
Cc1ccc(S(=O)(=O)N/N=C2/CCCCC2C2CCCCC2)cc1[N+](=O)[O-] (stereo not drawn) | -5.8% | -10.5% | u | 29.0% | -9.8% | 19.9% | -4.7% | -4.7%
COc1ccc(-n2c(SCC(=O)NCc3ccc(C)cc3)nc3n[nH]c(C)c3c2=N)cc1 | x | u | x | -20.3% | 1.7% | -29.2%[46.1 µM] | x | x
O=C1NC2(CCCCC2)C(=O)N1c1ccc(Cl)cc1 | 1.8% | x | 15.0%[46.1 µM] | 12.7% | x | 7.6%[46.1 µM] | -3.1% | -7.6%
COc1ccccc1OCC(O)CN1CCN(CC(=O)Nc2c(C)cccc2C)CC1 (stereo not drawn) | -24.7%[18.4 µM] | -7.0%&20.2% | u | -18.1%&-24.9%&7.2% | -6.3%&-2.5% | -33.2% | x | -2.7%
CCOc1ccc2nc(NC(=O)CC3Oc4ccccc4NC3=O)sc2c1 (stereo not drawn) | -11.0% | x | -2.4% | 8.4% | x | x | 1.3% | 5.4%
COC(=O)c1sccc1Oc1c(Cl)cccc1[N+](=O)[O-] | 0.1% | x | u | -12.8% | x | -13.3% | -2.1% | x
CCOC(=O)C1CCCN(C(=O)CCCn2nnnc2CN2CCC(C)CC2)C1 (stereo not drawn) | 1.4% | x | x | -4.7% | x | x | -5.2% | -11.9%
Cn1cc([C@@H]2C[C@H]3CN(Cc4cccc(Cl)c4)C(=O)[C@]34CCCN24)c2ccccc21 | 1.4% | x | x | -13.9% | x | x | 0.4% | 7.5%
COc1ccc(CC(=O)Nc2sc3c(c2C(=O)Nc2c(C)cccc2C)CCCCC3)cc1 | x | 0.1% | 13.6%[46.1 µM] | -21.1% | -0.9% | -17.6%[46.1 µM] | x | x
CCC(C)C(NC(=O)C(CC(C)C)NC(=O)C(CO)NC(=O)C1CCC(=O)N1)C(=O)OC (stereo not drawn) | 17.9% | x | -11.9% | 0.0% | x | u | -0.2% | 6.4%
CNC(=O)c1ccccc1S(=O)(=O)c1ccccc1C#N | 4.4% | 0.8% | -13.3% | -4.4% | 1.2% | 0.7% | 15.3% | u
COc1ccc(C(=O)NC2CC2)cc1OC1CCN(Cc2ccc(SC)cc2)CC1 | 5.4% | x | x | u | x | x | -3.6% | -6.0%
CC1CCN(S(=O)(=O)c2cc(Br)cc(C(=O)NC3=NCCS3)c2)CC1 | 2.2% | -14.2% | u | 18.4% | -0.3% | -22.2% | -4.8% | -144.2%
COc1ccc(/C=N/n2c(-c3cc(C)[nH]n3)n[nH]c2=S)cc1OC | 4.5% | x | x | -4.4% | x | x | 0.0% | 1.2%
CCOC(=O)C1=NNC(C(=O)c2ccc(Cl)cc2)C1c1ccc(OC)cc1 (stereo not drawn) | 11.2% | x | u | -11.3% | x | -6.0% | -0.2% | x
Cc1ccc(NC(=S)NC2CCCC2)cc1C | 2.6% | 2.1% | -15.1% | 50.0%[activator] | 0.7% | 6.9% | -37.8% | -23.2%
CC1CCN(CCOCCOc2ccc(Cl)cc2Br)CC1 | -3.7% | 8.1% | u | x | 0.0% | u | -4.3% | -10.2%
O=C(N/N=C/c1ccc2ncccc2c1)c1cc(-c2cccs2)nc2ccccc12 | -0.9% | x | x | -6.1% | x | x | 2.0% | 7.5%
Cc1ccc(NC(=O)CN2C(=O)COc3ccc(S(=O)(=O)N4CCOCC4)cc32)c(Cl)c1 | x | -5.8% | x | -2.5% | -1.1% | 0.6%[46.1 µM] | x | x
C=CCn1c(SCCN2C(=O)c3ccccc3C2=O)nc2scc(-c3ccccc3)c2c1=O | -4.1%[3.69 µM] | 3.4% | 2.5% | -2.0% | 1.5% | 1.0% | -2.3% | 6.7%
Cc1ccc(S(=O)(=O)N(C)C)cc1NC(=O)CCc1ccccc1 | 0.1% | x | x | -10.2% | x | x | -0.1% | 0.2%
O=C(NNc1cc(Cl)cc(Cl)c1)C1CCC1 | 2.7% | x | 0.3%[14.2 µM] | -5.2% | x | -15.9% | -2.9% | -40.7%
CC1(C)C=Cc2cc3ccc(=O)oc3cc2O1 | 12.8% | 32.6% | x | 28.7%&38.7% | 12.0% | x | -1.1% | -3.5%
Cc1cccc(N2CCN(Cc3nc(-c4cccc(Oc5ccccc5)c4)oc3C)CC2)n1 | -9.9% | x | x | -20.6% | x | x | -0.2% | -1.5%
Cc1ccccc1NC(=O)C1CCN(S(=O)(=O)c2c(C)noc2/C=C/c2ccco2)CC1 | x | 0.6% | -7.4%[46.1 µM] | -18.8% | -12.1% | -3.6%[46.1 µM] | x | x
CCOc1cccc(CNC2CN3CCC2CC3)c1 (stereo not drawn) | -5.0% | 1.0% | 15.0% | 16.3% | 3.5% | 16.0% | -6.5% | 8.9%
CCOc1ccc(NC(=O)c2ccc3c(c2)c(C)c(C)n3Cc2ccc(F)cc2)cc1 | x | 25.1µM* | x | -20.2% | 1.6% | -10.4%[46.1 µM] | x | x
CN1CCCN(S(=O)(=O)c2ccccc2)c2nc3ccccc3nc21 | 4.4% | x | -2.2% | -16.1% | x | -21.6% | 0.2% | x
COc1ccccc1NS(=O)(=O)c1cccc(C(=O)OCC(=O)Nc2cc(C)on2)c1 | -0.3% | -2.4% | -16.3% | 46.7%[activator] | -1.8% | 10.1% | 10.2% | 5.3%
COC1CCCCC1NCCc1ccccc1 (stereo not drawn) | 3.7% | x | -5.7%[46.1 µM] | 2.3% | x | 17.3% | -0.7% | -0.9%
Cc1ccc(CN2C(=O)c3oc4ccc(C)cc4c(=O)c3C2c2ccc(O)cc2)cc1 (stereo not drawn) | x | 10.2% | u | -5.5% | -1.0% | 5.5%[46.1 µM] | x | x
CCc1nnc2c(NCc3ccccc3)nc3ccccc3n12 | x | 4.9% | -9.8%[46.1 µM] | -1.9% | 0.0% | 19.5%[46.1 µM] | x | x
CCC(c1nnnn1CCc1ccccc1)N(Cc1ccco1)Cc1cc2c(C)ccc(C)c2[nH]c1=O (stereo not drawn) | 3.0% | -12.8% | 14.1µM* | 0.6% | -0.4% | u | 4.8% | u
CCC(CC)C(=O)N1CCN(c2cccc(C)c2C)CC1 | -6.0% | 8.0% | u | u | 1.4% | u | -34.3% | -48.4%
Cc1cccc(NC(=O)C2CCN(S(=O)(=O)c3cccc4nonc34)CC2)c1 | -1.8% | x | -1.2%[46.1 µM] | -4.0% | x | 17.4% | -2.9% | -5.8%
CCOC(=O)c1csc(NC(=O)C2=COCCO2)n1 | 1.4% | x | x | 34.4%[activator] | x | x | u | 4.0%
COc1ccc(CN=C(Nc2ccccc2)SC2CC(=O)NC2=O)cc1 (stereo not drawn) | -2.1% | x | -0.9%[46.1 µM] | -19.3% | x | u | 1.3% | 6.2%
COC(=O)C1=C(C)N(Cc2ccccc2)C(=NCc2ccc(OC)cc2)N[C@H]1c1ccccc1 | -15.6% | x | x | 0.0% | x | x | 6.2%&2.2% | -0.5%
O=C(Nc1ccccc1Cl)c1cc[n+]([O-])cc1 | 1.2% | x | 1.1%[46.1 µM] | 1.2% | x | 11.0%[46.1 µM] | 15.3% | 5.7%
O=S(=O)(c1ccc2ccccc2c1)N1CCCCC1 | -14.3% | -3.3% | -2.2% | -7.7% | -2.6% | -8.4% | -4.4% | -17.0%
CS(=O)(=O)N1N=C(c2ccccc2)CC1c1ccc2nccnc2c1 (stereo not drawn) | -4.8% | -2.5% | 9.9% | 59.2%[activator] | -4.1% | 11.3% | 4.6% | 8.6%
COc1ccc(/C=N/NC(=O)C(=O)N2CCN(c3ccccc3OC)CC2)cc1 | 6.5% | 5.6% | 1.0% | 81.1%[activator] | 3.8% | -30.4% | -2.8% | -9.7%
Cc1cc(C)cc(NC(=O)C(Nc2ccccc2)c2ccccc2)c1 (stereo not drawn) | -6.4% | -26.7% | u | -4.6% | -7.0% | -2.3% | -24.6% | -1.8%
CCOC(=O)c1c(NC(=O)C(C)Sc2c[nH]c3ccccc23)sc2c1CCC2 (stereo not drawn) | 13.3% | -25.0% | -23.1% | -12.7% | -13.1% | u | -23.8% | 28.5%
Cc1ccc(NC(=S)NCC23C=CC(O2)C2C(=O)N(c4ccc(C)cc4)C(=O)C23)cc1 (stereo not drawn) | 8.91µM* | -19.4% | 4.2% | 12.9% | -14.6% | 9.0% | -85.1% | -26.5%
O=C(O)C1C2C=CC(C2)C1C(=O)NCCCc1ccccc1 (stereo not drawn) | 14.1% | -0.8% | -22.0% | -11.2% | 4.1% | -2.2% | -5.7% | -4.4%
O/N=C\c1ccc(-c2ccccc2)o1 | -11.1% | -11.0% | u | 19.9% | -17.4% | 21.5% | 0.3% | -9.8%
COc1ccccc1N1CCN(S(=O)(=O)c2ccc(-n3cnnn3)cc2)CC1 | -25.0% | -1.1% | -5.7%&-5.7%[46.1 µM] | -29.5%&-24.4% | -3.5% | 1.0%[46.1 µM] | 1.8% | -8.4%
Cc1ccc(C(=O)OC(C(=O)Nc2ccc(Cl)cc2C(F)(F)F)c2ccccc2)cc1 (stereo not drawn) | 3.7% | -17.6% | u | u | -8.4% | u | -10.5% | -6.9%
